Six1-Eya2 blk: qHTS Assay for Inhibitors of the Six1/Eya2 Interaction. activity change, % (concentration not given with the values). AID 651725, 2012. 360,000 compounds, 0.56% hits. AlphaScreen GST-Six1/His-Eya2 binding, biochemical; stronger effect = lower value; control for the full effect not named in the record; in the data active = activity change below about -65%; inconclusive = about -30% to -65%; inactive = above about -30%; also: % is scaled to controls: 0 for no effect and ±100 for the full control effect
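AlphaScreen luminescence read after one hour at 37 °C in darkness. Pin-transferred compounds met GST-Six1 and His-Eya2 protein (5X stock 250 nM/500 nM) plus glutathione donor and Ni-chelate acceptor beads (5X, 50 ug/mL).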
D2 agonist: Beta-Arrestin HTS for Positive Allosteric Modulators of the Human D2 Dopamine Receptor: Agonists. AID 624465, 2012. 360,000 compounds, 0.084% hits. D(2) dopamine receptor (Homo sapiens), P14416. DiscoveRx PathHunter D2 beta-arrestin, luminescence, 90 min; 100% = 57 uM dopamine signal. activation, % (concentration not given with the values); in the data active = activation above about 40%; inconclusive = about 15% to 40%; inactive = below about 15%; also: the text of the record calls up to 30% inactive
Target sequence (P14416 whole entry, looked up): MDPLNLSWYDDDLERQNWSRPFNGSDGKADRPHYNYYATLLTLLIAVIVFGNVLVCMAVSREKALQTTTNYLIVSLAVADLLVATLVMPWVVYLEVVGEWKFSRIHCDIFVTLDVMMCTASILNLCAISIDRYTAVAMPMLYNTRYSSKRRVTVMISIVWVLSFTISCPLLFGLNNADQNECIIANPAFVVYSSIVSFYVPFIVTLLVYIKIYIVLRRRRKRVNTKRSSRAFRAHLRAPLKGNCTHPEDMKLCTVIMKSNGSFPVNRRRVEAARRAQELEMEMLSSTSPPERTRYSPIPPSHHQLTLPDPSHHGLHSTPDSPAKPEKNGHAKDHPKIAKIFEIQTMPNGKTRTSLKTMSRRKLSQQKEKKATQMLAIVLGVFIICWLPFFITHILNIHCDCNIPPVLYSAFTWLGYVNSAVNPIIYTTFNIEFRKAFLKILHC
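DiscoveRx PathHunter D2 beta-arrestin cells (2,100/well) attached overnight, then compound-stimulated 90 min at 37 C in HBSS/10 mM HEPES/0.1% Tween-20 buffer; beta-galactosidase complementation read by luminescence after 1 h at ambient temperature. Dopamine 57 uM final (EC100) as control.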
CtBP-E1A inh: qHTS Assay for Inhibitors of the CtBP/E1A Interaction. AID 651724, 2012. AlphaScreen GST-E1A/His-CtBP binding, 1536-well; stronger effect = lower value; control for the full effect not named in the record. 340,000 compounds, 0.49% hits. activity change, % (no concentration beside the values). CtBP / adenovirus E1A interaction (AlphaScreen); in the data active means activity change below about -65%; inconclusive means about -30% to -65%; inactive means above about -30%; also: % is scaled to controls: 0 for no effect and ±100 for the full control effect
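Homogeneous bead-based format: GST-tagged E1A captured on glutathione donor beads, His-tagged CtBP on nickel acceptor beads; compounds precede bead addition by 2 h at 37 °C.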
TRPML1 ag: qHTS for Agonists of the Human Mucolipin Transient Receptor Potential 1 (TRPML1); Mucolipin-1 (Homo sapiens), Q9GZU1; TRPML1-expressing cells, Ca2+ dye fluorescence, FDSS; host cell line not named in the record; reference of the full effect not given here; activation, % (concentration not given with the values); 410,000 compounds, 0.12% hits; AID 624414, 2012; in the data active = activation above about 50%; inconclusive = about 30% to 50%; inactive = below about 30%; also: 0% is about no effect; the text of the record puts the active cut at 80%
Target sequence (Q9GZU1 whole entry, looked up): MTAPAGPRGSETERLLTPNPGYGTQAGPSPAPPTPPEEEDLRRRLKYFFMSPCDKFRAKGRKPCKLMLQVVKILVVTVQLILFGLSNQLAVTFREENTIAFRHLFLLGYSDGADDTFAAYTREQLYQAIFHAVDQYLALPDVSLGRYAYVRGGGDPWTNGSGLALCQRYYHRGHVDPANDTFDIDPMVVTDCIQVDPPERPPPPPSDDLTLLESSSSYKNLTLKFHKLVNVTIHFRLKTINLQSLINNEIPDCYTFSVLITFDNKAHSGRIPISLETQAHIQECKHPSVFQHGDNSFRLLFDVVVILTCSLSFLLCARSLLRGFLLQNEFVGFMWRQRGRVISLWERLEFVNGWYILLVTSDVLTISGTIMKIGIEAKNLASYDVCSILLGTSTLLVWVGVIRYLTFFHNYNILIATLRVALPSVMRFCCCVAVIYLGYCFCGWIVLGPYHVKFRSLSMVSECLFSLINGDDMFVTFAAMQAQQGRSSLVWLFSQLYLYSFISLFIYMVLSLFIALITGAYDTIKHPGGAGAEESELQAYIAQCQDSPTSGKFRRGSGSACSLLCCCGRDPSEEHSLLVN
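Calcium fluorescence on an FDSS kinetic reader gave the read-out. Tet-induced TRPML1-DL cells were plated overnight, dye-loaded (Ca8 with quencher, 45-90 min, room temperature, dark), then read 110 s after compound addition, and again 110 s after 4uM final 54-4 (EC80).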
PINK1 expr mod: A Quantitative High throughput Screen to Identify Chemical Modulators of PINK1 Expression; PINK1 immunofluorescence, high-content cytometry, 24 h; Potency, µM (doses to about 76.6 µM), for the others: at the highest dose activation (PINK1 increase), usual class: activators; 410,000 compounds, 0.2% hits; active = well fitted activation curve with a large enough effect; inconclusive = small, poorly fitted or top-dose-only effect; inactive = flat fitted curve, though single readings scatter; cell line not stated here;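 also: potency is read from the fitted curve at half-maximal effect; % of control where 0% means no effect; nearly all actives have a fitted effect of over 65% in size; a mitochondrial uncoupler was the plate control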
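Decision-based qHTS: stable cells, 24 h exposure to five compound concentrations, CCCP as control. Fixed cells stained for PINK1 plus nuclear, mitochondrial and cell markers, cytometer read.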
D2 potentiator: Beta-Arrestin HTS for Positive Allosteric Modulators of the Human D2 Dopamine Receptor: Potentiators; AID 624464, 2012; D(2) dopamine receptor (Homo sapiens), P14416; 360,000 compounds, 0.23% hits; DiscoveRx D2 beta-arrestin cells, luminescence, 90 min; 100% = 57 uM dopamine signal; potentiation, % (concentration not given with the values); active = potentiation of 50% or more; inconclusive = 30% to 50%; inactive = 30% or less;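 also: tested on top of an EC20 dose of dopamine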
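D2 cells co-treated with compound plus 50 nM dopamine (EC20) for 90 min at 37 deg C to detect potentiation. Beta-arrestin recruitment was read as enzyme-fragment luminescence after 1 h at ambient temperature. Full response was set by 57 uM dopamine.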
* = called active by the depositor; u = inconclusive; x = no result given; [ ] = another dose, or the depositor's remark. The order is random; overall some 1.3% were active at least once.

SMILES	D2 agonist	TRPML1 ag	Six1-Eya2 blk	D2 potentiator	CtBP-E1A inh	PINK1 expr mod
COc1cccc(C(=O)Nc2cc([N+](=O)[O-])ccc2N2CCN(C)CC2)c1	-4.5	0.1	-3	-12	4	-6.5%[38.3 µM]
Cc1c(C)c2ccc(O)c(CN3CCN(C)CC3)c2oc1=O	-0.4	1.7	6	-12	0	-3.1%
COCc1nnc(NC(=O)CCC2CCCCC2)s1	-3.7	1.8	0	6	4	5.8%[38.3 µM]
N#Cc1ccc(CSc2ccccn2)c(Cl)c1	-2.8	1.8	30	-3	26	-1.0%
Cc1nnc(N/N=C/c2ccc([N+](=O)[O-])cc2)n1N	8.3	-0.1	-68*	9	u	0.9%
CCc1ccc2[nH]c(=O)c(CN(Cc3nnnn3C3CCCC3)C3CCCCC3)cc2c1	-0.5	0.4	-11	-16	-11	0.4%[38.3 µM]
O=C(O)CCn1c(=O)sc2ccccc21	-0.8	2.1	1	-5	-11	-0.4%
CCCN(CCC)CCNC(=O)C1c2ccccc2C(=O)N2CCc3ccccc3C12 (configuration not stated)	-2.3	-0.5	1	-11	-14	0.5%
COc1ccc(C(=O)CSc2nnc(-c3cc(C)on3)o2)cc1	4.3	0.5	1	-8	x	4.6%
O=C(Nc1nnc(-c2ccccc2)o1)C1CCCCC1	1.6	-0.7	4	-7	4	2.2%
CN1C[C@@H]2[C@@H]3C(=O)N(C)C(=O)[C@@H]3[C@](Cc3ccccc3)(C1=O)N2C(=O)c1ccccc1	-4.3	-0.2	7	-7	9	0.8%
Cc1cn(C2CC(O)C(O)C(CO)O2)c(=O)[nH]c1=O (configuration not stated)	-4.0	-0.4	-5	-3	5	0.2%
S=C(Nc1cccnc1)N1CCCCC1	1.5	0.2	2	4	2	-0.2%
CC(=O)c1sc(-c2ccc(F)cc2)cc1NS(=O)(=O)c1ccc(C)cc1	2.0	-0.2	-1	19	10	3.1%
COC(=O)c1c(-c2ccc(OC)cc2)sc2ccc(-c3ccc4c(c3)OCO4)cc12	-4.5	0.1	3	-5	1	-0.3%

Compound profiles, as listed above.
Results for COc1cccc(C(=O)Nc2cc([N+](=O)[O-])ccc2N2CCN(C)CC2)c1 = D2 agonist = -4.5; TRPML1 ag = 0.1; Six1-Eya2 blk = -3; D2 potentiator = -12; CtBP-E1A inh = 4; PINK1 expr mod = -6.5%[38.3 µM]
Results for CN1C[C@@H]2[C@@H]3C(=O)N(C)C(=O)[C@@H]3[C@](Cc3ccccc3)(C1=O)N2C(=O)c1ccccc1 = D2 agonist = -4.3; TRPML1 ag = -0.2; Six1-Eya2 blk = 7; D2 potentiator = -7; CtBP-E1A inh = 9; PINK1 expr mod = 0.8%

New compounds follow:
SMILES	D2 agonist	TRPML1 ag	Six1-Eya2 blk	D2 potentiator	CtBP-E1A inh	PINK1 expr mod
COc1ccc(C(=O)COC(=O)Cc2c[nH]c3ccccc23)c(OC)c1	-0.9	0.9	-15	2	1	-1.7%
CCC(c1nnnn1Cc1ccccc1)N1CCN(C(=O)c2ccco2)CC1 (configuration not stated)	-1.7	-1.0	-4	-15	5	0.0%
Cc1ccccc1CN1CCc2c(OCC(=O)N3CCCc4ccccc43)cccc2C1=O	2.0	0.5	-2	-13	-5	0.6%
COC(=O)CCn1nnc(-c2ccc(C(C)C)cc2)n1	-2.7	0.1	12	-3	21	-2.5%
O=S(=O)(NCc1ccco1)c1ccc(Cl)cc1Cl	-3.7	0.7	6	-5	3	0.6%
Cc1ccccc1NC(=S)N/N=C1\CC(C)(C)Oc2ccc(O)cc21	-1.5	0.2	-28	-28	u	0.9%
COc1ccc2c(c1OC)CN1CCc3cc4c(cc3[C@@H]1[C@@H]2O)OCO4	-8.2	0.4	-5	-30	-2	-0.1%
O=C1OC(/C=C/c2ccccc2)=NC/1=C/c1ccco1	-3.1	-0.2	-4	-9	-1	8.4%
Fc1ccccc1Cn1nnc(-c2ccc3c(c2)OCO3)n1	-0.1	5.0	30	0	26	4.7%
CCOC(=O)C1=C(C)N=c2s/c(=C\c3cccc(OCC(=O)O)c3)c(=O)n2C1c1ccccc1OC (configuration not stated)	-4.4	0.9	9	1	0	1.9%
CSc1ncnc2c1ncn2CCCNCc1ccc(C)o1	-8.5	0.4	1	-3	6	-0.1%
CCc1noc(C)c1C(=O)Nc1nc2ccc(S(C)(=O)=O)cc2s1	-5.1	-0.1	4	-3	4	-1.5%
Cn1c(Cn2c(=O)sc3ccccc32)nnc1SCC(=O)Nc1cccc(Cl)c1	-2.5	3.1	-2	-7	1	-0.5%
COc1ccc(-c2cc3nc4c(c(N5CCC6(CC5)OCCO6)n3n2)CCC4)cc1	-3.5	0.3	4	-2	7	0.8%
COC(=O)C1(C)NC(c2ccc(F)cc2)C2C(=O)N(c3ccccc3)C(=O)C21 (configuration not stated)	-4.0	0.6	1	-5	-14	0.0%
OC(CN1CCOCC1)Cn1c2c(c3ccccc31)CCCC2 (configuration not stated)	-0.2	0.0	-9	-28	-2	2.2%
c1ccc2c(c1)[nH]c1c(N3CCSCC3)ncnc12	3.5	-0.3	0	0	-9	0.5%
Cc1ccsc1C1CC(=O)NC2=C1C(=O)CC(C)(C)C2 (configuration not stated)	-2.7	-0.4	5	-14	9	9.1%
O=C(Nc1cccc([N+](=O)[O-])c1)c1ccc2ccccc2c1O	-4.3	0.5	4	-5	4	u
Cc1ccc(NS(=O)(=O)c2cn(C)cn2)cc1	-2.5	0.6	14	-3	-1	-2.0%
Cc1ccc(/C(O)=C2\C(=O)C(=O)N(CCCN3CCOCC3)C2c2ccccc2F)cc1 (configuration not stated)	-2.0	0.0	8	-5	1	0.4%
COC(=O)Cc1[nH]nc2c1C1(C(=O)N(Cc3ccc(Cl)cc3)c3ccccc31)C(C#N)=C(N)O2 (configuration not stated)	-3.0	-1.1	2	-4	-1	-0.4%
Cc1cc(C)n2c(SCC(=O)Nc3ccc(F)cc3)nnc2n1	-6.5	-0.2	3	-13	x	1.0%
O=C(O)c1cnn2c(C(F)(F)F)cc(-c3ccccc3)nc12	-3.8	-0.2	-2	-7	11	-1.3%
COc1cc(/C=N/Nc2nc(C)cc(C)n2)ccc1OC(=O)c1ccco1	2.1	-0.2	-1	-9	-2	-0.4%
Cn1c(=O)c2c(nc(N/N=C/c3cccs3)n2Cc2ccc(Br)cc2)n(C)c1=O	-4.3	1.5	30	-5	37	u
CCC(C)c1ccc(NC(=S)N2CCN(C(=O)C3CCCO3)CC2)cc1 (configuration not stated)	-0.1	1.2	1	2	-10	1.2%
COc1ccc(NC(=O)CN(C)C(=O)/C=C/c2cn(-c3ccccc3)nc2-c2ccc(C)cc2)cc1	-3.6	0.9	-6	1	-6	0.4%
CCN1CCN(C(=O)CN(CC)S(=O)(=O)c2ccc3ccccc3c2)CC1	-3.4	-0.1	6	-29	2	1.9%
C#CC(CC)(CC)NC(=S)Nc1cccc(C(C)=O)c1	-2.3	5.0	0	2	-1	2.3%
Cc1ccc(NC(=O)c2ncn(CCCN(CCCn3cnc(C(=O)Nc4ccc(C)c(C)c4)n3)Cc3ccc4[nH]ccc4c3)n2)cc1C	-1.3	-0.4	-5	x	-1	-0.7%
Cc1cccc(Oc2ccc(NC(=O)c3ccccc3C(=O)O)cc2)c1C	-2.9	4.0	-6	16	-8	3.9%
CCn1ncc([N+](=O)[O-])c1C(=O)N1CCc2ccccc2C1	-3.8	0.0	2	1	3	1.2%
N#Cc1cccc(NC(=O)CC2CCCCC2)c1	-0.7	0.5	2	-5	3	4.2%[38.3 µM]
CSc1ccc(CNc2nnnn2C)cc1	0.2	0.0	6	3	-11	1.1%
CC(C)NC(=O)NC(=O)COC(=O)c1ccccc1O	0.3	-0.2	5	1	4	-1.1%
O=S1(=O)[C@H]2C[C@@H]3C=C[C@@]2(CN1Cc1ccccc1F)O3	-1.3	-0.9	-3	-4	5	1.6%
Cc1nc2ccccc2nc1OCC(=O)N1CCN(c2ccccc2)CC1	1.9	-0.2	2	2	-3	0.3%
COc1ccc(S(=O)(=O)N/N=C\c2ccc3c(c2)OCO3)c(OC)c1	3.5	0.3	24	-29	10	2.2%
COc1ccc(Br)cc1C(=O)Nc1ccc(Cc2ccncc2)cc1	0.4	0.3	-1	-18	-6	0.9%[38.3 µM]
CC(=O)N1C[C@@H](CO)[C@@H](N(C)C(=O)C(C)(C)C)C[C@H]1c1ccccc1	4.4	-0.2	4	1	11	0.3%
COc1ccc(NC(=O)c2cc(S(=O)(=O)N3CCCC3)oc2C)cc1	-3.8	-1.2	-2	-15	x	1.4%
COCCCNC(=O)C1Cc2cc(S(=O)(=O)N3CCCC3)ccc2N1C(C)=O (configuration not stated)	-10	-0.6	0	-5	4	0.6%
COc1ccc(N(CC(=O)N/N=C/c2cccc(OC)c2OC)S(=O)(=O)c2ccccc2)cc1	-2.7	2.7	1	-2	x	0.7%
COC(=O)CSc1nnc(-c2cnccn2)n1C	-2.9	1.0	3	0	7	11%[38.3 µM]
O=C1CCC(C(=O)Nc2cccc3ccccc23)N1 (configuration not stated)	-4.2	0.8	-2	-4	1	-1.5%
Cn1nnc(NC(=O)COc2ccc(C3CCCCC3)cc2)n1	-2.1	0.6	-2	6	1	0.0%
COc1ccc(CNC(=O)c2ccc(Br)s2)cc1OC	-2.6	0.4	0	-18	5	2.1%
CC(C)(C)c1ccc(C(=O)Nc2nnc(Cc3c[nH]c4ccccc34)s2)cc1	u	0.9	9	2	3	17%
COc1ccc(S(=O)(=O)N(C)CC(=O)N2CCN(Cc3ccccc3)CC2)cc1C	-0.6	0.4	-3	-10	0	-0.1%[38.3 µM]
CC1(Oc2ccc(CC#N)cc2)CCN(Cc2ccccc2OC(F)F)C1 (configuration not stated)	-3.8	-0.5	-7	-17	1	1.2%
CC(=O)NC1CCN(CC(=O)Nc2nccs2)CC1	1.1	0.1	0	-6	2	0.5%
CCCOC1CCCN(C(=O)c2ccc(OC)c(OC3CCN(C(C)C)CC3)c2)C1 (configuration not stated)	-4.1	0.1	5	-11	1	2.2%
CC(C)(C)n1nnnc1C(c1cccs1)N(Cc1cccnc1)Cc1ccco1 (configuration not stated)	-2.3	3.6	-12	3	-1	-2.9%
CCOc1ccc2nc(Cl)c(CN(C(=O)c3cnccn3)C3CCCC3)cc2c1	0.9	-0.2	7	-5	6	1.2%
Cc1ccc2c(CN(C)Cc3ccc(OC(F)F)cc3)cc(=O)oc2c1C	-3.6	1.6	5	-6	9	3.3%
